From PubChem BioAssay
motility = Vibrio cholerae motility inhibitors, OD read-out (AID 588778). 10,000 tested, under 10 active. Vibrio cholerae motility, OD read-out; higher % means a stronger effect; test concentration not given here; primary cut-off and reference of the scale not given here; strong numbers were not always called active. inhibition, %; hits with a dose series show IC50 in µg/mL; in the data active = confirmed in a dose series; inconclusive = primary hit not retested
motility viability = further read-out of motility, marked with its call; inhibition, %; measured here: bacterial viability at 10 ug/mL;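 higher means fewer living bacteria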
The depositor's hits bear a star; ? = inconclusive; nt = no result given. An excerpt; the hit share may differ from the screen's.

SMILES	motility	motility viability
Fc1ccc(-n2c(Cc3cccs3)n[nH]c2=S)cc1Cl	6.4%	-2.2
O=C(Nc1ccc(C2=NC(c3ccccc3)=NC3C=CC=CC23)cc1)c1ccc([N+](=O)[O-])cc1 (stereo unspecified)	5.0%	5.1
c1ccc(-c2cc3c(ncn4nnnc34)s2)cc1	25.6%	-0.4
N#Cc1c(NC(=O)CON2C(=O)CCC2=O)sc2c1CCCC2	-19.7%	-11.1
Cc1cccc(C2(c3cccc(C)c3)CC2C(=O)Nc2ccccc2Cl)c1 (stereo unspecified)	-21.4%	-12.5
COc1ccc(NC(=O)c2ccc3nc(-c4ccccc4)c(-c4ccccc4)nc3c2)c(OC)c1	15.2%	6.3
O=[N+]([O-])c1ccc(CSc2n[nH]c(-c3ccco3)n2)cc1	21.6%	6.1
COC(=O)c1ccc(CSc2n[nH]c(-c3ccccc3OC)n2)o1	4.0%	5.8
N#C/C(=C/c1ccc(N2CCOCC2)cc1)c1ccccc1Cl	-4.3%	-0.9
CSc1ccccc1NC(=O)COc1ccccc1Cl	19.4%	37.6
COc1ccc(CC(=S)NCCc2ccccc2)cc1	18.5%	2.6
Cc1ccccc1NC(=O)CSC1CCCCC1	2.9%	4.4
Cc1cc(S(=O)(=O)Nc2cccc3c([N+](=O)[O-])cccc23)ccc1Cl	64.3%	13.0
O=Cc1ccc(Sc2nnc(-c3ccccc3)c(-c3ccccc3)n2)o1	8.3%	-1.2
NC(=O)COc1ccc(NC(=O)OCc2ccccc2)cc1	-14.3%	-1.7
C/C(NC(=O)c1ccccc1)=C1\OC(=O)C(C)N1C(=O)c1ccccc1 (stereo unspecified)	7.5%	-2.2
COc1ccc(S(C)(=O)=O)cc1S(C)(=O)=O	2.0%	-2.3
COC(=O)Cc1c(C)c2ccc(OCC(=O)Nc3ccc(Cl)c(C(F)(F)F)c3)cc2oc1=O	-3.3%	3.2
O=C(c1ccc(COc2c(F)c(F)cc(F)c2F)o1)N1CCN(c2ccc(Cl)cc2)CC1	-3.9%	0.0
O=C(NCc1cccnc1)c1cccc(COc2cccc3ccccc23)c1	10.3%	-1.4
COC(=O)C1=C(C)N=C2SCCC(=O)N2C1/C=C/c1ccccc1 (stereo unspecified)	-20.3%	-9.4
CCC(=O)Nc1sc2c(c1C#N)CC(C)(C)NC2(C)C	2.5%	-2.1
O=[N+]([O-])c1cc(-n2ncnc2-c2ccccc2C(F)(F)F)ccc1Cl	3.4%	2.2
O=C(Nc1cccc(OC2=NS(=O)(=O)c3ccccc32)c1)c1ccccc1	-6.8%	-0.7
Cc1ccc([N+](=O)[O-])cc1NC(=O)CCc1ccc(S(=O)(=O)NC2CCCCC2)cc1	-2.7%	-5.1
O=c1nc(-c2ccccc2Cl)c2cc(F)ccc2[nH]1	-2.6%	-5.5
CCOC(=O)N1CCN(C(=O)C2CCN(S(=O)(=O)c3cc(Cl)ccc3Cl)CC2)CC1	0.8%	-0.3
CC1CCN(C(=O)NC(C(F)(F)F)C(F)(F)F)CC1	4.2%	-1.1
O=C(/C=C/C(=O)OCC(F)(F)C(F)F)Nc1cccc(Br)c1	3.4%	-2.4
CC(=O)Nc1ccc(Br)c(C(F)(F)F)c1	74.5%	17.9
O=C1CC(N2CCN(c3ccc(S(=O)(=O)N4CCCC4)cc3)CC2)C(=O)N1c1ccc(F)cc1 (stereo unspecified)	-4.9%	-5.4
O=C1CC(c2nc3ccccc3n2Cc2ccc(F)cc2)CN1c1cccc(C(F)(F)F)c1 (stereo unspecified)	-2.4%	1.6
O=C(CCCCC(=O)Nc1ccc(Cl)cc1F)Nc1ccc(Cl)cc1F	15.0%	4.6
Cc1ccc(S(=O)(=O)NCCSC2CCCCC2)cc1[N+](=O)[O-]	18.5%	5.9
CCn1c(SCC(=O)Nc2nc(=O)c3ccccc3s2)nc2ccccc2c1=O	1.8%	0.8
Cc1ccc(-c2ccc(OC(=O)COc3ccccc3[N+](=O)[O-])cc2)cc1	2.4%	0.6
Cc1ccc(C)c(OCC(=O)Nc2ccc(NC(=O)c3cccs3)c(C)c2)c1	2.5%	28.9
N#C/C(=C\c1cn(CCC(N)=O)c2ccccc12)Sc1nc2ccccc2s1	-0.4%	-1.1
Cc1nc(-c2cccc(NC(=O)c3cc4cc(Br)ccc4oc3=O)c2)cs1	-11.1%	-4.7
Cc1ccc(OCCCSc2ncccn2)c(I)c1	-6.3%	2.3
CS(=O)(=O)N1CCN(C(=O)c2cc(Cl)ccc2Cl)CC1	-4.8%	-1.4
CCOC(=O)C1=C(CN2CCc3ccccc32)NC(=O)NC1c1ccc2c(c1)OCO2 (stereo unspecified)	-8.5%	4.8
COc1ccc(CNc2nccs2)c(O)c1	1.6%	-1.6
Cc1ccsc1/C=C/c1cc(C(F)(F)F)[nH]c(=O)n1	8.1%	5.7
CCn1c2ccccc2c2cc(NC(=O)Oc3ccccc3)ccc21	-12.2%	-3.2
S=C(NCc1ccco1)NN1CCOCC1	8.0%	2.9
CCOC(=O)c1sc(NC(=S)n2cc(C)cn2)c(C(=O)OCC)c1C	9.7%	0.9
NC(=O)c1nn(-c2ccccc2)nc1N	8.2%	1.6
Cc1ccc2nsnc2c1NC(=S)NC(=O)c1cncc(Br)c1	16.0%	23.5
OCCCNC(=S)Nc1ccc(Br)cc1	10.4%	1.2
O=C(Cc1ccc(O)cc1)NNC(=O)Nc1ccc(Br)cc1Cl	2.1%	-2.0
CCOC(=O)c1sc(NC(=O)C(CC)Sc2nnnn2-c2ccccc2)nc1C (stereo unspecified)	4.7%	1.7
CCCCc1c(C(=O)O)cc(OC)cc1C(=O)O	-3.7%	3.7
NC(=O)C1CCN(C2CC(=O)N(Cc3ccc(F)cc3)C2=O)CC1 (stereo unspecified)	9.7%	-2.6
CSc1ncc(C(=O)Nc2nccs2)cn1	?	nt
O=S(=O)(c1ccc(Cl)cc1)N1CCN(Cc2ccccn2)CC1	0.2%	2.1
COc1ccc2c(c1)C(C(C(=O)O)C(=O)O)c1ccccc1O2 (stereo unspecified)	11.8%	4.5
Cc1cc(Br)ccc1OCC(N)=O	26.8%	4.2
Nc1ccc(Oc2cccc3cccnc23)c(Cl)c1	23.8%	0.5
O=C(CC(c1ccccc1)c1ccccc1)Nc1ccccc1-c1ccccc1	-20.1%	-9.6
The results go on.
SMILES	motility	motility viability
CSc1ccccc1-n1nnnc1SCC(=O)Nc1cc(C)ccc1C	-2.1%	4.7
O=S(=O)(Nc1cc(C(F)(F)F)ccc1Cl)c1cccs1	13.6%	8.4
COc1cc(C(=S)N2CCN(Cc3ccccc3)CC2)ccc1OCC(=O)Nc1cccc(Cl)c1C	-11.2%	-6.6
CCOCCCNC(=O)C(=O)NCc1ccco1	5.4%	31.6
COc1ccc(Cc2nnc(SCC(=O)Nc3ncc(C(F)(F)F)cc3Cl)n2-c2ccccc2)cc1	20.8%	4.4
CC(NC(=O)Nc1cccc(C(F)(F)F)c1)c1nc2ccccc2[nH]1 (stereo unspecified)	7.9%	1.7
O=c1[nH]nc(Cc2ccccn2)c2ccccc12	-2.7%	-1.5
O=C(Nc1ccc([N+](=O)[O-])cc1Br)c1ccncc1	-6.6%	-0.5
O=C(NCCc1ccccc1)C(F)(F)C(F)F	0.7%	0.7
Cc1ccc(S(=O)(=O)CCC(=O)OCc2ccccc2F)cc1	-12.1%	-0.8
CN1CCc2nc(SCc3ccccc3Br)c(C#N)cc2C1	9.3%	-0.2
Cc1cc(C(=O)NC(C)C(C)(C)C)cs1 (stereo unspecified)	3.8%	6.2
COC(=O)CSc1nc(N(C)C)nc(N(C)C)n1	6.0%	-2.8
CC(Sc1nnc(N)s1)C(=O)Nc1nc2c(s1)CCCC2 (stereo unspecified)	30.6%	13.6
CCC(Oc1ccccc1)C(=O)N1CCN(c2cccc(C(F)(F)F)c2)CC1 (stereo unspecified)	1.6%	0.0
c1ccc2nc(-c3nc4ccccc4s3)ccc2c1	-20.9%	-11.1
C=CCN(CC=C)C(=O)Nc1ccc(C(C)=O)cc1	2.0%	-3.4
O=C1CC(c2ccccc2)Cc2nc3nc4ccccc4n3cc21 (stereo unspecified)	14.7%	-2.7
O=C(NCc1ccco1)c1c(F)cccc1Cl	11.7%	4.5
O=C(c1ccc(-c2ccccc2F)o1)N1CCOCC1	6.4%	2.2
CCOC(=O)c1sc(-c2ccc(OC)cc2)cc1N	-10.6%	-3.7
O=C(CSc1ncc(-c2ccc([N+](=O)[O-])cc2)[nH]1)N1CCCCC1	10.3%	-2.8
CC(C)(C)NC(=O)c1ccc(COc2ccc(Cl)cc2Cl)o1	2.6%	6.5
C=CCNCCCOc1ccc(C)cc1Br	28.4%	7.0
CCOC(=O)c1cccc(/C=C/c2ccc(OC)c(OC)c2)n1	-1.9%	11.0
C=CCNc1sc(C(=O)c2ccc(Br)s2)c(N)c1C#N	5.3%	26.9
Cc1ccc(NC(=O)c2sc3nc(N)c(C#N)cc3c2N)c(Br)c1	9.8%	5.6
O=c1c2c3c(sc2ncn1/N=C/c1ccc(-c2cccc([N+](=O)[O-])c2)o1)CCCC3	6.8%	21.9
Cc1cc(C)c(C#N)c(Nc2ccc(Cl)c(Cl)c2)n1	6.2%	4.4
O=C(CNS(=O)(=O)c1ccc(Br)cc1)NCc1cccnc1	-7.0%	-2.3
Cc1cc(C)nc(Nc2ccc(S(N)(=O)=O)cc2)n1	-16.6%	3.2
Cc1cc(CO)c(C)n1-c1ccc(OCc2ccccc2)cc1	-0.5%	-3.4
O=C(Nc1ccc(S(=O)(=O)NCCC2=CCCCC2)cc1)N1CCCCC1	8.3%	1.0
O=C(Nc1ccc(F)cc1)C1CC(=O)n2cnnc2N1 (stereo unspecified)	-1.3%	-3.7
Cc1cc(-c2cccs2)c(C#N)c(SCC(=O)NC(C)C23CC4CC(CC(C4)C2)C3)n1 (stereo unspecified)	-2.8%	-7.0
CC(C)CC(C(=O)N1CCCCC1)N1C(=O)c2cc(Cl)c(Cl)cc2C1=O (stereo unspecified)	-11.6%	2.4
O=C(NC1CC2CCC1C2)c1ccc(Cl)c(S(=O)(=O)Nc2ccccc2)c1 (stereo unspecified)	7.7%	23.6
Cc1[nH]c2ccccc2c1/C=C/c1nc2ccccc2c(=O)n1CCO	-21.6%	-7.6
O=c1cc(/C=C/c2ccco2)[nH]c2ccccc12	55.7%	17.7
O=c1[nH]c2c(c(=O)[nH]1)C(c1ccccc1)c1c(ccc3ccccc13)N2 (stereo unspecified)	5.6%	2.4
O=C(NCCOc1ccccc1-c1ccccc1)c1ccccc1I	8.2%	-1.7
O=C(O)CSCC(NC(=O)c1ccccc1)C(=O)O (stereo unspecified)	-5.9%	-2.1
CCOC(=O)CSc1nc2nc(C)c(Br)c(=O)n2[nH]1	-3.7%	-1.4
Cc1cc(C(=O)NCc2ccc(S(N)(=O)=O)cc2)cs1	-10.3%	5.1
Cc1ccc(C(=O)c2coc3c2C(=O)c2ccccc2C3=O)cc1	-2.3%	-7.2

2 of these compounds, reformatted:
Values run as follows: motility	motility viability
O=c1nc(-c2ccccc2Cl)c2cc(F)ccc2[nH]1
→ -2.6%	-5.5
CCOC(=O)N1CCN(C(=O)C2CCN(S(=O)(=O)c3cc(Cl)ccc3Cl)CC2)CC1
→ 0.8%	-0.3

(listing goes on)
SMILES	motility	motility viability
CCCc1cc(=O)n2c(nc3ccccc32)[nH]1	28.3%	8.3
CCCc1cc(C(=O)Nc2ccc(Cl)cn2)cs1	18.4%	3.9
CC(C)(C)NS(=O)(=O)c1ccc(NC(=O)CN2C(=O)c3ccccc3C2=O)cc1	-1.5%	-1.9
O=C(Nc1ccc(Cl)cn1)Nc1ccccc1C(F)(F)F	-7.5%	-2.0
CCC(=O)n1nc(NCc2ccc(F)cc2)nc1NCc1ccc(F)cc1	-4.3%	-6.6
Clc1cccc(OCCn2c3ccccc3c3ccccc32)c1	4.3%	-11.6
CSc1ccccc1C(=O)Nc1ccc(S(=O)(=O)Nc2cccc(Cl)c2Cl)cc1	4.6%	-0.3
O=C(CCN1C(=O)C2C3C=CC(C4CC34)C2C1=O)Oc1ccc(Br)cc1 (stereo unspecified)	6.1%	0.9
CCC(C)c1c(O)[nH]c(=S)[nH]c1=O (stereo unspecified)	-9.6%	-2.8
CC(Sc1nc2cc(-c3ccccc3)c(-c3ccccc3)cc2[nH]1)C(=O)O (stereo unspecified)	-7.2%	-2.0
O=c1[nH]c(=S)[nH]c(O)c1C(c1ccccc1)c1ccccc1	8.9%	-4.6
CC(c1ccccc1)n1c(Cn2ncc3ccccc3c2=O)n[nH]c1=S (stereo unspecified)	6.4%	35.9
Oc1ccccc1-c1nc(Nc2cccc(C(F)(F)F)c2)c2ccccc2n1	-10.7%	-8.3
Cc1c(Cl)cccc1NC(=O)NNC(=O)CC(C)O (stereo unspecified)	-2.2%	-7.5
O=C(Nc1cccc2ccccc12)c1ccc(CSCc2ccccc2)cc1	-23.7%	-13.0

Compounds listed so far with a thiophene ring, fused or not, in the order listed:
SMILES	motility	motility viability
Fc1ccc(-n2c(Cc3cccs3)n[nH]c2=S)cc1Cl	6.4%	-2.2
c1ccc(-c2cc3c(ncn4nnnc34)s2)cc1	25.6%	-0.4
N#Cc1c(NC(=O)CON2C(=O)CCC2=O)sc2c1CCCC2	-19.7%	-11.1
CCC(=O)Nc1sc2c(c1C#N)CC(C)(C)NC2(C)C	2.5%	-2.1
Cc1ccc(C)c(OCC(=O)Nc2ccc(NC(=O)c3cccs3)c(C)c2)c1	2.5%	28.9
Cc1ccsc1/C=C/c1cc(C(F)(F)F)[nH]c(=O)n1	8.1%	5.7
CCOC(=O)c1sc(NC(=S)n2cc(C)cn2)c(C(=O)OCC)c1C	9.7%	0.9
O=S(=O)(Nc1cc(C(F)(F)F)ccc1Cl)c1cccs1	13.6%	8.4
Cc1cc(C(=O)NC(C)C(C)(C)C)cs1 (stereo unspecified)	3.8%	6.2
CCOC(=O)c1sc(-c2ccc(OC)cc2)cc1N	-10.6%	-3.7
C=CCNc1sc(C(=O)c2ccc(Br)s2)c(N)c1C#N	5.3%	26.9
Cc1ccc(NC(=O)c2sc3nc(N)c(C#N)cc3c2N)c(Br)c1	9.8%	5.6
O=c1c2c3c(sc2ncn1/N=C/c1ccc(-c2cccc([N+](=O)[O-])c2)o1)CCCC3	6.8%	21.9
Cc1cc(-c2cccs2)c(C#N)c(SCC(=O)NC(C)C23CC4CC(CC(C4)C2)C3)n1 (stereo unspecified)	-2.8%	-7.0
Cc1cc(C(=O)NCc2ccc(S(N)(=O)=O)cc2)cs1	-10.3%	5.1
CCCc1cc(C(=O)Nc2ccc(Cl)cn2)cs1	18.4%	3.9
